GIRK2 act: activators of human GIRK2 potassium channels; 63,000 compounds, 0.05% hits; calls only for hits at 25 µM; HEK293-GIRK2 thallium flux, Thallos fluorescence;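 active = among the strongest 0.2% of first-round signals and kept after retests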;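 also: first round at about 10 µM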
Target sequence (P48051 whole entry, looked up): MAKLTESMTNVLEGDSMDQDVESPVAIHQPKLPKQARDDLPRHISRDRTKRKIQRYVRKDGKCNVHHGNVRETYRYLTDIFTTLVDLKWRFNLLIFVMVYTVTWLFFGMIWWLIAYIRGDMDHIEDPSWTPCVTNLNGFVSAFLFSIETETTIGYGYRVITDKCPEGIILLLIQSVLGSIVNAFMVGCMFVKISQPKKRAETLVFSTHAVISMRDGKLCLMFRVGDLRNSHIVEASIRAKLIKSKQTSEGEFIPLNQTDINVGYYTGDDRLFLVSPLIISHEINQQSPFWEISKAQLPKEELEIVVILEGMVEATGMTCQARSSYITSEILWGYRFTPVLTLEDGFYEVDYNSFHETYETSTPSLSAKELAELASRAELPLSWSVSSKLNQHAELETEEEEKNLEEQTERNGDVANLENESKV
Calls only; i = inactive. Only part of the results is shown. The share of hits here may be higher or lower than overall.

GIRK2 act,Compound
i,Cc1ccc(-n2ncc3c(=O)[nH]c(-n4nc(C)cc4NC(=O)Cc4ccc(F)cc4)nc32)cc1
i,O=C(CSc1nc2ccccc2s1)Nc1cccc(-c2ccn[nH]2)c1
i,COCCOCC1CCN(C(=O)C(C)(C)C)CC1
i,Cc1c(OCC(N)=O)ccc2c1O/C(=C\c1ccc3c(c1)OCO3)C2=O
i,O=C(C1CCN(S(=O)(=O)N2CCCC2)CC1)N1CCSCC1
i,CCOc1ccccc1NC(=O)CSc1nc2ncccc2c(=O)n1-c1cccc(OC)c1
i,O=C(NCCCn1ncccc1=O)Nc1ccc(F)cc1
i,CS(=O)(=O)N1CCC(C(=O)Nc2ccc(-c3ccn[nH]3)cc2)CC1
i,CCNC(=O)[C@@H]1CCCN2C(=O)CC[C@H](NC(=O)[C@H](Cc3ccc(OP(=O)(O)O)cc3)NC(C)=O)C(=O)N12
i,CCOc1ccc(-c2noc(C3CCN(S(=O)(=O)c4cccs4)CC3)n2)cc1OC
i,CCN(CC)CC#CCNC(=O)CC(c1ccccc1)c1ccccc1
i,Cc1cccc(Cn2c(=O)n(CC3CCC(C(=O)N4CCOCC4)CC3)c(=O)c3sccc32)c1 (stereo not given)
i,COc1cccc(NC(=O)Cn2c(=O)n(Cc3nc(C)no3)c(=O)c3ccccc32)c1
i,CCn1c(SCC(=O)Nc2ccc(OC)cc2)nc2nc(N3CCC(C)CC3)sc2c1=O
i,O=C(c1cc(-c2ccc(F)cc2)n[nH]1)N1CCn2c1nc1ccccc12
i,Cc1ccc(-c2csc(-n3nc(C)cc3NC(=O)c3cccc([N+](=O)[O-])c3C)n2)cc1
i,Cc1ccc(N2CCn3c2nc2c3c(=O)n(CCN3CCOCC3)c(=O)n2C)c(C)c1
i,Cn1cc(C(=O)N2CCN(CCNC(=O)c3cccs3)CC2)nn1
i,COC(=O)C(C)N1N=C(C(=O)N2CCCCCC2)S(=O)(=O)c2ccc(C)cc21 (stereo not given)
i,Cc1nc(-c2ccccc2)sc1CNS(=O)(=O)c1cccc(C(F)(F)F)c1
i,COc1ccc(Cl)cc1Nc1c(-c2nc(C)no2)cnc2nc(C)ccc12
i,CCCCS(=O)(=O)Nc1cnc(N2CCCC2)nc1
i,COc1cc(/C=C/C(=O)NCC#CCOc2ccc3c(c2)OCO3)cc(OC)c1OC
i,O=C(NCc1ccccc1)C1=Cc2cc(Br)ccc2OC=C1
i,Cc1cc(C)cc(Oc2nccn3c(=O)n(CC(=O)Nc4cc(C)ccc4C)nc23)c1
i,O=C(Nc1nc2cc3c(cc2s1)OCCO3)Nc1c(F)cccc1F
i,NC(=O)COc1cc(-c2ccc(Cl)cc2)nc2ccc([N+](=O)[O-])cc12
i,COc1ccccc1N1CCN(CCN2C(=O)c3ccccc3C2=O)CC1
i,CCCNS(=O)(=O)c1cc(Cl)c(OCC)cc1Cl
i,COc1cccc(N2CCCn3c2nc2c3c(=O)n(CC(C)=O)c(=O)n2C)c1
i,O=C(NCCOc1ccc(F)cc1)C(c1ccccc1)n1cccc1 (stereo not given)
i,COCCOC(=O)c1c(C)oc2ccc(OCC(=O)NN)cc12
i,Cc1ccc(S(=O)(=O)N2CCC(c3nc(-c4cccc(Cl)c4)no3)CC2)cc1
i,Cc1cc(C(=O)N2CCC(Oc3nc4c(F)cc(F)cc4s3)CC2)no1
i,Cc1ccc(-n2nnc(C(=O)Nc3ccc(F)c(F)c3F)n2)cc1
i,Cc1cc(NC(=O)C2CCN(C(=O)c3cc(-c4ccccc4)nn3C)CC2)no1
i,Cc1ccc(/C=C/S(=O)(=O)Nc2ccc3c(c2)N(C(=O)c2cccs2)CC3)cc1
i,Cc1noc(C)c1S(=O)(=O)N1CCC(c2nn(C)c(=O)n2-c2ccccc2)CC1
i,CCCn1c(=O)c2c(nc(-n3nc(C)c(C)c3C)n2CCOC)n(C)c1=O
i,Cc1nc(C(=O)N2CCCC(c3nnc(-c4ccccc4F)s3)C2)cs1 (stereo not given)
i,CN(C)c1cccc(C(=O)NCc2cc(-c3cccs3)n(C3CCCC3)n2)c1
i,Cc1nc(C)c(CNS(=O)(=O)c2ccccc2C(F)(F)F)s1
i,O=S(=O)(c1cccnc1)N1CC(c2nc(-c3cccs3)no2)C1
i,CCCCN1CC(O)=C(c2nc3ccccc3[nH]2)C1=N
i,COc1ccccc1OCC#CCNC(=O)c1cccc2ccccc12
i,COc1cccc(C(O)=C2C(=O)C(=O)N(c3cc(C)on3)C2c2cccc([N+](=O)[O-])c2)c1 (stereo not given)
i,CCN1C(=O)Cc2cc(N)ccc21
i,O=C1CCCC(=O)N1CCS(=O)(=O)Nc1ccc(Cl)c(N2CCCS2(=O)=O)c1
i,CCOC(=O)CC(=O)CSc1cc(C(C)(C)C)nc2c(-c3ccccc3)c(C)nn12
i,COc1ccccc1CNC(=O)Cn1cc(C(=O)N2CCCCC2)c(=O)c2ccc(C)nc21

More entries:
GIRK2 act,Compound
i,Cc1ccc(C)c(N2CCN(C(=O)c3cn(-c4cccc(Cl)c4)nn3)CC2)c1
i,CCN(Cc1ccccc1)C(=O)c1cc2cc(OC)ccc2oc1=O
i,COCCn1c(-c2nc(C(=O)Nc3ccccn3)cs2)cc2ccccc21
i,Cc1ccc(OCCCn2c(CCNC(=O)c3ccco3)nc3ccccc32)cc1
i,COc1ccc(-c2csc3c(=O)n(CC(=O)Nc4cccc(Br)c4)cnc23)cc1
i,CN1CCN(c2cc(NC(=O)/C=C/c3ccc(F)cc3)ncn2)CC1
i,COc1ccccc1N1C(=NC(=O)CCCC(=O)O)SC2CS(=O)(=O)CC21 (stereo not given)
i,O=C(NCCN1CCOCC1)c1csc(-c2cnccn2)n1
i,COc1ccccc1CNC(=O)Cn1c(=O)nc(-c2ccccc2F)c2cc(Cl)ccc21
i,C=C1C(=O)OC2/C=C(\COC(C)=O)CC/C=C(\C=O)CC(OC(=O)C(C)CC)C12 (stereo not given)
i,CC1(C)Cc2cccc(OCC(=O)Nc3cnoc3)c2O1
i,CS(=O)(=O)c1ccc(Nc2nc(C(=O)NC3CCCC3)cs2)cc1
i,CCN1c2ccccc2C(=O)NC12CCN(C(=O)Nc1ccccc1OC)CC2
i,Cc1ccc(NC(=O)Nc2ccc(Nc3cc(-n4cccn4)ncn3)cc2)c(Cl)c1
i,CCOc1ccc(-c2cc(C(=O)N3CCC(Cc4ccccc4)CC3)no2)cc1
i,CSc1cccc(NC(=O)CSc2nccn2-c2ccc(C(=O)NCc3ccco3)cc2)c1
i,COc1cc(OC)cc(-n2nnc(-c3nc(-c4ccc5c(c4)OCO5)cs3)c2N)c1
i,COC(=O)c1ccccc1NC(=O)CSc1ncnc2nc(C)ncc12
i,O=C(CCn1cnc2c([nH]c3ccc(F)cc32)c1=O)NCC1CCN(Cc2ccccc2F)CC1
i,CC(Cc1ccco1)NS(=O)(=O)c1ccccc1Cl (stereo not given)
i,COC(=O)c1sc2cccc(F)c2c1S(=O)(=O)Nc1ccc(C)cc1Cl
i,Cc1ccc(Nc2c(C(=O)N3CCOCC3)cnc3nc(C)ccc23)cc1
i,O=C(c1cc(OCc2ccccc2)no1)N1CCN(c2ccccc2F)CC1
i,CCOC(=O)c1ccc2nc(C)cc(NC(=O)COc3ccccc3)c2c1
i,O=C(c1cc2ccccc2oc1=O)N(CCc1cccs1)Cc1ccco1
i,CCCCC[C@@](C)(O)/C=C/[C@@H]1[C@@H](C/C=C\CCCC(=O)O)[C@@H](O)C[C@H]1O
i,Cc1ccc(S(=O)(=O)N2CCC(c3nc(-c4ccc(Br)cc4)no3)CC2)cc1
i,O=C(NCC(F)(F)F)c1coc(NC(=O)C2CC2)n1
i,CCCCn1c(C(=O)NCC(=O)OC)cc2c(=O)n(C)c(=O)n(C)c21
i,CCNC(=O)C1CCN(c2cc(SCC(=O)Nc3ccc(C)cc3C)ncn2)CC1
i,CCN1CCN(c2nc3ccccc3nc2C(C#N)C(=O)OCc2ccccc2)CC1 (stereo not given)
i,Cc1nc(-c2ccc(F)cc2)sc1-c1cc(C(=O)N(C)Cc2ccccc2)n[nH]1
i,CC1CCN(C(=O)CN2CCN(Cc3nc(-c4ccc(F)cc4)cs3)CC2)CC1
i,CN(CCO)CC1COCCN1C(=O)C1CCCCC1 (stereo not given)
i,C=C(C)Cn1c(N/N=C\c2cccc(OC)c2O)nc2c1c(=O)n(C)c(=O)n2C
i,CC(C)c1cc(NN)n2ncc(-c3ccccc3)c2n1
i,CCCCCC(=O)CCC1C(=O)C=CC1C/C=C\CCCC(=O)O (stereo not given)
i,Cn1cc(C(=O)N2CCN(C(c3ccccc3)c3ccccc3)CC2)nn1
i,CN(CC(=O)Nc1ccc(F)c(F)c1F)c1nc2c(C(F)(F)F)cccc2s1
i,CS(=O)(=O)Nc1ccccc1C1=NN(S(C)(=O)=O)C(c2ccc3nccnc3c2)C1 (stereo not given)
i,Cc1cc(C(=O)Nc2nnc(-c3csc(C)n3)o2)no1
i,CCN1CCN(Cc2c(NC(=O)c3ccc(F)cc3)sc3c2CCC3)CC1
i,CCOC(=O)c1ccccc1NC(=O)Cn1ccn2nc(-c3ccc(Cl)cc3)cc2c1=O
i,CC(O)(CCc1ccccc1)CNC(=O)Nc1cccs1 (stereo not given)
i,Cc1nc(C(C)(C)C)cc(=O)n1CC(=O)Nc1ccc2c(c1)CCC2
i,COc1cccc(-c2cc(C(=O)NCC(F)(F)F)[nH]n2)c1
i,COc1ccc2c(c1)c(CC(=O)NCCc1ccc(Br)cc1)c(C)n2C(=O)c1ccc(Cl)cc1
i,O=C(Cc1ccc(NC(=O)c2cc(=O)c3ccccc3o2)cc1)NCc1cccs1
i,O=C(CSc1nnc2ccccn12)c1ccc2c(c1)OCCO2
i,O=C(CCCSc1ccc(NC(=O)C2CC2)nn1)NCC1CCCO1 (stereo not given)

The list continues.
GIRK2 act,Compound
i,O=C(Cn1nc(-c2ccccc2)c2sc(N3CCCC3)nc2c1=O)Nc1ccc(F)c(Cl)c1
i,O=C(Cc1cc(=O)[nH]c(SCc2cccc(Cl)c2)n1)NC1CCCC1
i,O=C(NCCCN1CCCCC1)C1CCN(c2nc3ccsc3c(=O)n2-c2ccccc2)CC1
i,Cn1c(=O)c([N+](=O)[O-])c(NCc2ccccc2Cl)c2ccccc21
i,Cn1cc(NC(=O)Nc2ccccc2)c2ccccc21
i,Cc1nc(-c2ccco2)sc1CNC(=O)c1cc2ccccc2oc1=O
i,O=C(/C=C\c1ccccc1)Nc1c2c(nn1CC(=O)NCc1ccc(F)cc1)CSC2
i,Cc1cc(S(=O)(=O)NCC(c2ccsc2)N2CCOCC2)ccc1F (stereo not given)
i,Cc1ccccc1C1C(C(=O)Nc2ccccc2)C(C)Nc2ncnn21 (stereo not given)
i,Cc1csc(CN2CCN(C(=O)C3c4ccccc4Oc4ccccc43)CC2)n1
i,CC(=O)COc1ccc2c(c1)O/C(=C\c1ccccc1F)C2=O
i,CCOC(=O)C1CCc2sc(NC(=O)c3ccnn3C(C)C)nc21 (stereo not given)
i,COc1ccccc1C(=O)N1CCN(CC(O)C2CC2)CC1 (stereo not given)
i,CC(C)Cn1c(SCc2nc(-c3ccccc3Cl)no2)nc2ccsc2c1=O
i,Cc1cc(C)cc(OCCNS(=O)(=O)c2ccccc2Cl)c1
i,Cc1cc(-c2nc(C3CC(=O)N(Cc4ccc(F)cc4)C3)no2)n[nH]1 (stereo not given)
i,O=C(Cn1cc(S(=O)(=O)N2CCCC2)ccc1=O)NC1CCCC1
i,O=C(Cn1c(=O)[nH]c2c(-c3ccccc3F)c[nH]c2c1=O)N1CCN(Cc2ccccc2)CC1
i,Cn1cc(C(=O)N2CCN(c3ccccc3)CC2)nn1
i,COc1ccc(S(=O)(=O)NCc2ccc(C(=O)c3cccs3)s2)cc1Cl
i,CCCNC(=O)CN1CCN(CC(O)c2cccs2)CC1 (stereo not given)
i,Cc1cc(NC(=O)c2ccc(S(=O)(=O)N(Cc3ccco3)C3CC3)o2)no1
i,O=C(NCCN1CCN(C(=O)c2cccs2)CC1)c1cnccn1
i,O=C(O)CCC/C=C\C[C@@H]1[C@@H](CC[C@@H](O)CCc2cccc(C(F)(F)F)c2)[C@H](O)C[C@@H]1O
i,CC1Nc2ncnn2C(c2cccs2)C1C(=O)Nc1ccccc1 (stereo not given)

7 of the compounds above, with bars between the fields:
smiles | GIRK2 act
COc1ccccc1C(=O)N1CCN(CC(O)C2CC2)CC1 (stereo not given) | i
CC(C)Cn1c(SCc2nc(-c3ccccc3Cl)no2)nc2ccsc2c1=O | i
Cc1cc(C)cc(OCCNS(=O)(=O)c2ccccc2Cl)c1 | i
Cc1cc(-c2nc(C3CC(=O)N(Cc4ccc(F)cc4)C3)no2)n[nH]1 (stereo not given) | i
O=C(Cn1cc(S(=O)(=O)N2CCCC2)ccc1=O)NC1CCCC1 | i
O=C(Cn1c(=O)[nH]c2c(-c3ccccc3F)c[nH]c2c1=O)N1CCN(Cc2ccccc2)CC1 | i
Cn1cc(C(=O)N2CCN(c3ccccc3)CC2)nn1 | i

Next part.
GIRK2 act,Compound
i,O=C(c1ccco1)N1CCN(C(=O)C2CCN(c3ccc(-c4ccccc4)nn3)CC2)CC1
i,Cc1cccc(N2CCN(S(=O)(=O)N3CCCCCC3)CC2)c1C
i,Cc1nc(C)c(C(=O)Nc2ccc(Nc3cc(-n4cccn4)ncn3)cc2)s1
i,COC1(CNC(=O)C(=O)Nc2ccc3c(c2)OCO3)CCSC1 (stereo not given)
i,O=C(NC1CCCC1)c1ccc(Nc2nn3c(=O)c4ccccc4nc3s2)cc1

Fetched one by one from the list above, four records:
GIRK2 act,Compound
i,O=C(NCCN1CCOCC1)c1csc(-c2cnccn2)n1
i,O=C(CCCSc1ccc(NC(=O)C2CC2)nn1)NCC1CCCO1 (stereo not given)
i,CC(O)(CCc1ccccc1)CNC(=O)Nc1cccs1 (stereo not given)
i,COc1cc(/C=C/C(=O)NCC#CCOc2ccc3c(c2)OCO3)cc(OC)c1OC

Among those listed so far, these have a tert-butyl group:
GIRK2 act,Compound
i,COCCOCC1CCN(C(=O)C(C)(C)C)CC1
i,CCOC(=O)CC(=O)CSc1cc(C(C)(C)C)nc2c(-c3ccccc3)c(C)nn12
i,Cc1nc(C(C)(C)C)cc(=O)n1CC(=O)Nc1ccc2c(c1)CCC2
